D2 potentiator: Beta-Arrestin HTS for Positive Allosteric Modulators of the Human D2 Dopamine Receptor: Potentiators; DiscoveRx D2 beta-arrestin cells, luminescence, 90 min; 100% = 57 uM dopamine signal; potentiation, % (test concentration not listed); hit rate 0.23% among 360,000; D(2) dopamine receptor (Homo sapiens), P14416; active = potentiation of 50% or more; inconclusive = 30% to 50%; inactive = 30% or less;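 further: compound concentration not given in the record; tested on top of an EC20 dose of dopamine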
Target sequence (P14416 whole entry, looked up): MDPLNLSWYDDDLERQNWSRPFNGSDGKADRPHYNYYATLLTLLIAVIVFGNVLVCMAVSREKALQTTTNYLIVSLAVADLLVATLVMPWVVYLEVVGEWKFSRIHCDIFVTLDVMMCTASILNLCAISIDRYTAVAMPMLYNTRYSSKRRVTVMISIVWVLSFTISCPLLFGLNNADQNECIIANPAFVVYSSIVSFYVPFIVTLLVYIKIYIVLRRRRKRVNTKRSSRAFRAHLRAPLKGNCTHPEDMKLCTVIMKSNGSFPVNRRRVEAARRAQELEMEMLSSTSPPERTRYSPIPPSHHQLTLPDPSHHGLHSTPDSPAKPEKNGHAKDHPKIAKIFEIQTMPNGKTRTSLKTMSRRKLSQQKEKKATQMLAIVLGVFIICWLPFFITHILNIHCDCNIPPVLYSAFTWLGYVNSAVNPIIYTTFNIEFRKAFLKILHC
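PathHunter beta-arrestin assay in DiscoveRx D2 cells. Compounds were added with an EC20 of dopamine (50 nM final) for 90 min at 37 deg C. Luminescence was read 1 h after detection reagent, with 57 uM dopamine as the EC100 control.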
PINK1 expr mod: A Quantitative High throughput Screen to Identify Chemical Modulators of PINK1 Expression; PINK1 immunofluorescence, high-content cytometry, 24 h; Potency, µM (series often up to 76.6 µM), without a hit: at the highest dose activation (PINK1 increase), actives largely listed as activators; hit rate 0.2% among 410,000; AID 624263, 2012; active = well fitted activation curve with a large enough effect; inconclusive = small, poorly fitted or top-dose-only effect; inactive = flat fitted curve, though single readings scatter; cell line not stated here;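 further: potency means the concentration at half of the fitted maximal effect; % of control where 0% means no effect; nearly all actives have a fitted effect of over 65% in size; a mitochondrial uncoupler was the plate control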
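Compound titrations (5 concentrations, 24 h) on a stable cell line; DMSO and CCCP controls. Endpoint: fixed-cell PINK1 immunofluorescence with mitochondrial, cell and nuclear markers, scanned by microplate cytometer.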
TRPML1 ag: qHTS for Agonists of the Human Mucolipin Transient Receptor Potential 1 (TRPML1); Mucolipin-1 (Homo sapiens), Q9GZU1; TRPML1-expressing cells, Ca2+ dye fluorescence, FDSS; host cell line not named in the record; reference of the full effect not given here; activation, % (test concentration not listed); hit rate 0.12% among 410,000; in the data active = activation above about 50%; inconclusive = about 30% to 50%; inactive = below about 30%; further: 0% is about no effect; the text of the record puts the active cut at 80%
Target sequence (Q9GZU1 whole entry, looked up): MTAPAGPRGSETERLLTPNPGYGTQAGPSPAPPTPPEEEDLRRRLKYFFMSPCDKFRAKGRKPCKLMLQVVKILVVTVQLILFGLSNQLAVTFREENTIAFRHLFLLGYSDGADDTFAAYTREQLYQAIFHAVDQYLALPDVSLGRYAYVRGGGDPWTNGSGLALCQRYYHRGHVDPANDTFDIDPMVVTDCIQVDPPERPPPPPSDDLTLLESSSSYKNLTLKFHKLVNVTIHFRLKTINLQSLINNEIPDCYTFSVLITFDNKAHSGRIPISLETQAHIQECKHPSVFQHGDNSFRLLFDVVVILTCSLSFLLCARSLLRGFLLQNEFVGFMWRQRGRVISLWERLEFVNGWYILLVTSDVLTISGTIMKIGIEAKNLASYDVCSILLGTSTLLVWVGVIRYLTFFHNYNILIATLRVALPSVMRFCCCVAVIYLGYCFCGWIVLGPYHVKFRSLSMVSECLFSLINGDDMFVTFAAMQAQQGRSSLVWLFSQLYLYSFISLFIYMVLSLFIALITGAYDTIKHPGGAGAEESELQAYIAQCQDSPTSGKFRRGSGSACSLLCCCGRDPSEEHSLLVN
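Agonist activity was taken from a 110 s kinetic Ca2+ dye read on the FDSS after pinning compounds onto TRPML1-DL cells. The cells were seeded at 1,500/well with Tet inducer, incubated about 16 h, then dye-loaded at room temperature.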
D2 ag: Beta-Arrestin HTS for Positive Allosteric Modulators of the Human D2 Dopamine Receptor: Agonists; DiscoveRx PathHunter D2 beta-arrestin, luminescence, 90 min; 100% = 57 uM dopamine signal; activation, % (no concentration beside the values); hit rate 0.084% among 360,000; D(2) dopamine receptor (Homo sapiens), P14416; in the data active = activation above about 40%; inconclusive = about 15% to 40%; inactive = below about 15%; further: compound concentration not given in the record; the text of the record calls up to 30% inactive
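Agonist mode: compounds alone added to overnight-plated D2 PathHunter cells for 90 min at 37 C, with 57 uM final dopamine (EC100) defining full response. Beta-arrestin recruitment detected by chemiluminescent reagent, read after 1 h at ambient temperature.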
CtBP-E1A blk: qHTS Assay for Inhibitors of the CtBP/E1A Interaction | AID 651724, 2012 | AlphaScreen GST-E1A/His-CtBP binding, 1536-well; hits give low values; control for the full effect not named in the record | activity change, % (test concentration not listed) | hit rate 0.49% among 340,000 | CtBP / adenovirus E1A interaction (AlphaScreen); in the data active means activity change below about -65%; inconclusive means about -30% to -65%; inactive means above about -30%; further: on the % scale 0 is the no-effect control and ±100 the full control effect; compound concentration not given in the record
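In 5 uL wells, 23 nL compound meets equimolar GST-E1A and His-CtBP (5X stock 125 nM each) for 2 h, 37 °C. Beads (5X, 50 ug/mL) then 1 h, 37 °C, dark.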
Six1-Eya2 blk: qHTS Assay for Inhibitors of the Six1/Eya2 Interaction; hit rate 0.56% among 360,000; AlphaScreen GST-Six1/His-Eya2 binding, biochemical; hits give low values; control for the full effect not named in the record; activity change, % (test concentration not listed); Homeobox protein SIX1 (Homo sapiens) + Protein phosphatase EYA2 (Homo sapiens), …; AID 651725, 2012; in the data active = activity change below about -65%; inconclusive = about -30% to -65%; inactive = above about -30%; further: on the % scale 0 is the no-effect control and ±100 the full control effect; compound concentration not given in the record
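AlphaScreen with GST-Six1 and His-Eya2 (5X mix: 250 nM and 500 nM), glutathione donor and nickel acceptor beads; buffer 50 mM Tris pH 8.0, 300 mM NaCl, 1 mM TCEP; 1 h at 37 C in the dark.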
Starred values were filed as active, the others as inactive; ? = inconclusive; · = no result given; [ ] = remark or other dose. Rows were taken by chance; overall some 1.3% were active at least once.

molecule,D2 ag,PINK1 expr mod,Six1-Eya2 blk,CtBP-E1A blk,TRPML1 ag,D2 potentiator
CSCC[C@H](NC(=O)c1ccc(Cl)c(S(=O)(=O)N2CCCC2)c1)c1nc2ccccc2[nH]1,-0.5,4.2%[38.3 µM],-28,-10,-0.4,-16
CC(Sc1nc2sccc2c(=O)n1-c1ccccc1)C(N)=O (stereo not drawn),1.8,-1.9%,-5,1,-0.2,-1
Cc1ccc2nc(NC(=O)CN3C(=O)NC4(CCCC4)C3=O)sc2c1,-4.7,-5.3%,0,4,-0.3,-4
CC(=O)c1ccc(NC(=O)/C=C/c2ccc(C)cc2)cc1,-1.2,12%,3,0,1.0,-19
COC(=O)c1cc(C(=O)OCC(=O)Nc2cc(C)on2)cc([N+](=O)[O-])c1,1.8,0.6%,5,3,0.0,10
CCOC(=O)N1CCN(c2c(NCCc3ccccc3)c(=O)c2=O)CC1,-4.5,0.2%,8,0,-0.4,4
Cc1ccnc(NC2CCCCC2)c1,0.9,0.5%,2,·,0.6,-15
CCOCCCn1c(SC(C(=O)Nc2cc(C)ccc2C)c2ccccc2)nnc1-c1ccc(Cl)cc1 (stereo not drawn),-5.6,5.9%,-2,-2,0.0,-6
O=C(NC(=S)Nc1ccc(Cl)c(C(=O)O)c1)c1cccc(COc2ccccc2)c1,-2.2,0.4%,-6,-18,1.2,-14
Cc1ccsc1C(=O)NC(C)c1ccccc1 (stereo not drawn),-2.3,1.0%,2,3,0.3,-6

Next section, starting with the last 2 of the part before.
molecule,D2 ag,PINK1 expr mod,Six1-Eya2 blk,CtBP-E1A blk,TRPML1 ag,D2 potentiator
O=C(NC(=S)Nc1ccc(Cl)c(C(=O)O)c1)c1cccc(COc2ccccc2)c1,-2.2,0.4%,-6,-18,1.2,-14
Cc1ccsc1C(=O)NC(C)c1ccccc1 (stereo not drawn),-2.3,1.0%,2,3,0.3,-6
COc1ccc(OCc2nnc(SCC(=O)NNC(=O)c3ccc(C)cc3)n2C)cc1,-11,1.3%,0,7,0.5,-57
Cc1c(CCC(=O)NCCCn2ccnc2)c(=O)oc2c(C)c3occ(C(C)(C)C)c3cc12,4.9,-1.0%,-5,-22,-0.2,-10
Cc1ccc(C(CC(=O)O)Nc2nc(N3CCCCC3)nc(N3CCCCC3)n2)cc1 (stereo not drawn),-3.7,-3.9%,-1,9,-0.2,-5
CCN(CC)CCSc1nc2ccc(OC)cc2[nH]1,-5.3,-0.8%,2,7,·,-5
COc1ccc(-n2c(=O)cc(N3CCN(c4ccccc4OC)CC3)[nH]c2=O)cc1,-0.2,9.5%[38.3 µM],2,5,1.1,-10
CCn1c(CCNC(=O)c2cccs2)n[nH]c1=S,-3.3,-0.2%,4,2,0.4,-2
O=C(CN1C(=O)CCSc2ccccc21)Nc1ccc2c(c1)OCO2,-0.2,0.0%[38.3 µM],-1,3,0.9,0
O=C(Nc1ccn(Cc2ccc(F)cc2)n1)c1ccncc1,0.3,-1.1%,-2,-2,0.7,2
O=C(Nc1ccc2c(c1)OCCO2)C1c2ccccc2OCC(=O)N1Cc1ccco1 (stereo not drawn),·,0.4%,-10,-11,0.7,·
Cc1n[nH]c(=O)n1-c1ccc(OC(F)(F)F)cc1,1.9,1.5%,70,3,-0.1,-2

More results:
molecule,D2 ag,PINK1 expr mod,Six1-Eya2 blk,CtBP-E1A blk,TRPML1 ag,D2 potentiator
COC(=O)c1ccccc1NC(=S)N(C)C,-7.5,-0.4%,8,-17,1.1,1
CCOC(=O)C1(CCCc2ccccc2)CCN(Cc2nccn2CC)CC1,-2.0,17%,-2,-6,0.2,-13
CC(=O)N/C(=C\c1ccccc1)C(=O)OCC(=O)c1c(N)n(CC(C)C)c(=O)n(C)c1=O,-0.8,-1.4%,-6,6,-0.7,-2
CC(C)(C)C(=O)Nc1cc2c3c(c1)CC(=O)N3CCC2,-4.5,0.5%,11,·,-1.2,-8
CC1CCC2C(C1)Nc1c(C(=O)O)cccc1C2(C)C (stereo not drawn),0.8,2.8%,-16,0,-0.3,-14
CCOc1cccc2sc(N(CCCN(C)C)C(=O)c3ccc(S(=O)(=O)N(C)CC4CCCO4)cc3)nc12 (stereo not drawn),-2.8,-0.4%,2,3,0.9,-28
O=S(=O)(c1ccccc1C(F)(F)F)N1CCC(n2cnc3ccccc32)CC1,1.3,-0.2%,-5,23,0.0,-5
CC(C)C(c1nnnn1Cc1ccccc1)N1CCN(Cc2ccc3c(c2)OCO3)CC1 (stereo not drawn),-2.8,-0.5%,-11,-17,1.3,-15
CCOC(=O)N1CCN(S(=O)(=O)c2ccc(C(=O)Nc3nnc(CC)o3)cc2)CC1,-1.7,4.5%,?,3,0.2,-6
O=C1OC2(CCCCC2)OC(=O)C1=CNc1ccc2c(c1)OCO2,-3.7,2.0%[38.3 µM],1,5,-0.5,0

Next section:
molecule,D2 ag,PINK1 expr mod,Six1-Eya2 blk,CtBP-E1A blk,TRPML1 ag,D2 potentiator
CCCC(=O)Nc1ccc2oc(-c3cncc(Br)c3)nc2c1,-1.1,4.6%,10,1,-0.2,-3
Cc1cc(/C=N/NS(=O)(=O)c2ccc(F)c(Cl)c2)no1,-2.9,13%,?,2,0.0,-11
COc1ccc2cc(CCNS(=O)(=O)c3ccc(NC(C)=O)cc3)c(=O)[nH]c2c1,-3.6,4.6%,-6,18,-1.3,-9
CC(C)Cc1nnc(NC(=O)CCC(=O)NC2CCCCC2)s1,-0.6,1.5%,5,7,-0.7,2
CCOC(=O)C1=C(C)Nc2ncnn2C1/C=C/c1ccccc1 (stereo not drawn),-1.3,9.7%[38.3 µM],0,8,1.5,-3
Cc1cccc(OCC(=O)N(Cc2nnc(-c3ccccc3Cl)o2)C2CC2)c1,-4.3,-2.2%,-2,7,3.0,0
CC(=O)c1cnc2sccn2c1=O,-5.2,-0.1%,-14,24,1.2,2
CCc1ccc(/C=N\n2cnnc2)cc1,0.5,-1.2%,6,9,0.0,-1
Cc1csc(=O)n1CCC(=O)OCC(=O)NCc1ccc(Cl)cc1Cl,-3.1,0.8%,-1,-1,-0.9,-33
O=S(=O)(NCc1ccc2c(c1)OCO2)c1cccc(F)c1,5.1,0.5%,11,12,0.0,-7

Later entries
molecule,D2 ag,PINK1 expr mod,Six1-Eya2 blk,CtBP-E1A blk,TRPML1 ag,D2 potentiator
COc1cccc2c1OCC(C(=O)OCc1cccnc1)=C2,2.2,-0.8%,0,-2,0.7,-9
COc1ccc(N(CC(=O)NCCSCc2cccc(Cl)c2)S(C)(=O)=O)cc1,5.9,0.1%,-4,4,-0.6,-7
CCOc1ccc(CCN2C(=O)C(=O)N([C@@H](CC(C)C)CN3CCC[C@@H]3CN3C(=O)C(=O)NC[C@@H]3CC(C)C)C[C@@H]2Cc2ccccc2)cc1,-3.3,3.3%,-2,5,-0.4,-5
CN(c1ccc2nc3ccccc3c(=O)n2n1)C1CCCCC1,-1.0,0.4%,?,·,3.5,22
COc1ccc(CCNC(=O)Cn2cccc2C(=O)c2ccccc2)c(OC)c1,-0.7,0.2%,-12,0,1.7,7
Cc1cccc(N=Nc2cn[nH]c2-c2ccco2)c1,-0.2,0.6%,-11,·,3.4,-4
Cc1c(N=O)c(-c2ccccc2)n(O)[n+]1[O-],1.7,1.6%,0,3,-0.5,-6
Cc1ccc(CC(=O)N/N=C/c2ccc3c(c2)OCO3)cc1,-1.2,8.7%,17,9,1.3,0
O=C(CSc1nc2ccccc2[nH]1)N/N=C/c1ccco1,4.5,-0.6%,20,0,-0.1,2
CCOC(=O)c1cc(C#N)c(SC(C)C(=O)NC2CCCCC2)nc1C (stereo not drawn),-3.7,1.8%,6,·,-1.0,4

Following part
molecule,D2 ag,PINK1 expr mod,Six1-Eya2 blk,CtBP-E1A blk,TRPML1 ag,D2 potentiator
CS(=O)(=O)N(CC(=O)NCc1ccc2c(c1)OCO2)c1cccc(Cl)c1,2.7,-1.9%,7,4,-0.1,-1
O=C(CN(Cc1ccc(Cl)cc1)S(=O)(=O)c1ccccc1)NCC1CCCO1 (stereo not drawn),-4.2,-1.9%,7,3,-0.3,20
O=C(O)CCN1c2cccc3cccc(c23)S1(=O)=O,-5.2,-2.0%,-4,-3,0.7,-2
COc1cc(/C=C(\C#N)c2ccccn2)ccc1OCC(=O)Nc1cccc(C(F)(F)F)c1,-3.4,4.2%,5,1,0.3,-11
COc1ccc(OC)c(NC(=O)C2COc3ccccc3O2)c1 (stereo not drawn),-3.7,3.4%,3,0,2.1,-1
NC(=O)CC[C@H](NC(=O)c1ccc(F)cc1)C(=O)OCC(=O)NCc1ccc2c(c1)OCO2,0.8,0.9%,2,4,0.5,-2
Cc1nn(-c2ccccc2)c(C)c1C(=O)NCCc1ccccc1,-0.6,-2.9%,1,-16,0.5,-2
COc1ccc(CCNC(=O)CN(C)S(=O)(=O)c2cccc3nsnc23)cc1OC,-2.0,-1.2%,-3,5,-0.4,3
CN(CC(=O)Nc1ccc(F)c(F)c1F)C(=O)C1CCC1,-4.6,-1.8%,-2,9,0.2,-66
CC(=O)Nc1ccc(N(C(=O)c2ccco2)C(C(=O)NC2CCCC2)c2cccs2)cc1 (stereo not drawn),-4.5,2.6%,5,2,-0.9,-4

Part of the list above in order of SMILES length, ascending:
molecule,D2 ag,PINK1 expr mod,Six1-Eya2 blk,CtBP-E1A blk,TRPML1 ag,D2 potentiator
COc1ccc(OC)c(NC(=O)C2COc3ccccc3O2)c1 (stereo not drawn),-3.7,3.4%,3,0,2.1,-1
CN(CC(=O)Nc1ccc(F)c(F)c1F)C(=O)C1CCC1,-4.6,-1.8%,-2,9,0.2,-66
CC(=O)Nc1ccc(N(C(=O)c2ccco2)C(C(=O)NC2CCCC2)c2cccs2)cc1 (stereo not drawn),-4.5,2.6%,5,2,-0.9,-4
